# A647 fluor: qHTS Assay for Spectroscopic Profiling in A647 Spectral Region; Compound fluorescence, A647 channel (570/671 nm), Tris buffer; max dye-equivalent concentration, M; 59,000 tested, under 10 active; AID 592, 2007; active means above 1 µM dye equivalent; inconclusive means 0.1 to 1 µM; inactive means 0.1 µM or less;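 further: values scaled relative to a standard on each plate; highest value over a series up to 38 µM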
#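 Spectral profiling of library compounds in pH 8.0 Tris: 15 min room-temperature incubation, single ex/em pair (570/671 nm), response normalized to Alexa 647 equivalents.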
# Resorufin fluor: qHTS Assay for Spectroscopic Profiling in Resorufin Spectral Region; Compound fluorescence, resorufin region 547/598 nm, buffer; hits give high values; max dye-equivalent concentration, M; actives 0.04% (n = 59,000); AID 588, 2007; active = above 10 nM dye equivalent; inconclusive = 1 to 10 nM; inactive = 1 nM or less; a few of its hits are not listed in these tables; further: highest value over a series up to 38 µM
#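 Tris 100 mM pH 8.0; compound added, 15 min RT; CCD imager read, ex 547 nm/em 598 nm; signal normalized to resorufin standard curve (six concentrations per plate) as dye-equivalent concentration.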
# TSHR ag: qHTS Assay for Agonists of the Thyroid Stimulating Hormone Receptor | Thyrotropin receptor (Homo sapiens), P16473 | HEK293-CNG-TSHR cells (CNG channel as cAMP sensor), membrane potential dye, cAMP | Potency, µM (series often up to 57.1 µM), without a hit: at the top dose activation, hits mostly activators | actives 0.48% (n = 73,000); active = well fitted activation curve of enough size with the parental cells flat; inconclusive = any curve in the parental cells; inactive = parental cells flat and receptor cells flat or falling; further: potency means the concentration at half of the fitted maximal effect; % of control where 0% means no effect; weak receptor curves with flat parental cells got no call and are not listed
# Target sequence (P16473 whole entry, looked up): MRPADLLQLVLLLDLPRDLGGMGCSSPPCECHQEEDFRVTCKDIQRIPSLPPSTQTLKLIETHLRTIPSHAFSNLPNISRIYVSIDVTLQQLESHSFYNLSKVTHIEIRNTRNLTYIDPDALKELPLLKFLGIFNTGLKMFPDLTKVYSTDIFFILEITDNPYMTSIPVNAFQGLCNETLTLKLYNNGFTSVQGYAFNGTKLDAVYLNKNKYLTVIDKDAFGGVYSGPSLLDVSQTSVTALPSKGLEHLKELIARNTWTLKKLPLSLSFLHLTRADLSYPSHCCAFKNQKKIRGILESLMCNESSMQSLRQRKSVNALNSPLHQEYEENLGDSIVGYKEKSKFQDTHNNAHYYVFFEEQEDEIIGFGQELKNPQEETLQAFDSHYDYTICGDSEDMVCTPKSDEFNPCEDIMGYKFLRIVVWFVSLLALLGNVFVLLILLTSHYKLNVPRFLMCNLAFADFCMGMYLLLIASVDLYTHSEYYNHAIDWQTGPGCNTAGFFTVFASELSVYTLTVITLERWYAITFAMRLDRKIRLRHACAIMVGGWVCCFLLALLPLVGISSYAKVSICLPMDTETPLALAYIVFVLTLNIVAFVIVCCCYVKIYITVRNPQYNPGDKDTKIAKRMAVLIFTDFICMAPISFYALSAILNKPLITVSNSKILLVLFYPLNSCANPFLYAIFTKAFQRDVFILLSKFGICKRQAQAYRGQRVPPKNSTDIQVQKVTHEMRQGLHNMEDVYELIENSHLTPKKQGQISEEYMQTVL
#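 HEK 293 cells stably expressing TSHR and a modified CNG channel, with CNG-only parental cells as counterscreen, were preloaded 60 min at room temperature with membrane potential dye containing 100 uM RO 20-1724. Compound exposure was 30 min, and depolarization was read as fluorescence at 590 nm.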
# A488 autofl: qHTS Assay for Spectroscopic Profiling in A488 Spectral Region | actives 0.1% (n = 59,000) | max dye equivalency, M | compound autofluorescence, A488 spectral region, dye equivalency; hits give high values; active = above 10 nM dye equivalent; inconclusive = 1 to 10 nM; inactive = 1 nM or less; about half of its hits are not listed in these tables;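 further: highest value over a series up to 38 µM; compound alone in buffer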
#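 Compounds pin-transferred into 100 mM Tris buffer, pH 8.0, incubated 15 min at room temperature, then imaged with 480 nm excitation/540 nm emission filters. Fluorescence converted to Alexa 488 dye-equivalent concentration via an on-plate six-point A488 standard curve.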
# AID923: qHTS Assay for Allosteric/Competitive Inhibitors of Caspase-1: Spectroscopic Profiling in AFC Spectral Region; compound fluorescence, AFC spectral region (405/520 nm); almost no hit is shown here; Potency, µM (highest dose often 57.5 µM), for inactives: at the highest dose fluorescence increase, hits mostly activators; actives 1.1% (n = 75,000); AID 923, 2007; active means well fitted activation curve with a large enough effect; inconclusive means small, poorly fitted or top-dose-only effect;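 further: potency means the concentration at half of the fitted maximal effect; 0% is about no effect; scaled to a free AFC standard on each plate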
#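 Baseline compound fluorescence (AFC region, 405 nm ex/520 nm em) taken from the intercept of kinetic reads with 50 nM caspase-1 and 5 uM Ac-WEHD-AFC; normalized to an on-plate AFC standard curve; compounds titrated up to 57 uM.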
# The depositor's hits bear a star; i = inactive; ? = inconclusive; . = not tested or not shown; [ ] = another dose, or the depositor's remark. This is a subset, so the mix of outcomes need not match the whole.
# Under each structure – A488 autofl | TSHR ag | A647 fluor | AID923 | Resorufin fluor
Cc1ccc(-n2c3c(cc(C(=O)NCCCN4CCOCC4)c2=O)C(=O)CC(C)(C)C3)cc1
  . | ? | . | -0.5% | .
CCOC(=O)CSc1nc2c(cnn2-c2ccc(C)cc2)c(=O)[nH]1
  i | 10% | 1.4e-08 | 0.3% | i
CCOC(=O)C(NC(=O)C1CCCN1C(=O)OCc1ccccc1)C(=O)OCC (centres undefined)
  i | 0%[11.4 µM] | 6.1e-09 | 0.3% | i
Cc1ccc(Cn2ncn3c(cc4ccccc43)c2=O)cc1
  . | 27% | . | 2.7% | .
C=CCSc1nnc(-c2cc(Br)ccc2N)c(=O)[nH]1
  . | ? | . | -1.0% | .
CCCn1c(=O)c2c(nc(Br)n2CCC)n(C)c1=O
  i | 15% | 1e-09 | -0.6% | i
Cn1c(SCC(=O)N2c3ccccc3Sc3ccccc32)nnc1-c1ccco1
  i | 23% | 4e-08 | 1.3% | i
CC(C)NC(=O)NC(=O)CSc1ncc(C(F)(F)F)cc1Cl
  i | 5% | 1e-09 | -0.6% | i
CC1CC(C)CN(S(=O)(=O)c2ccc(NC(=O)C3COc4ccccc4O3)cc2)C1 (centres undefined)
  . | ? | . | -0.3% | .
COc1ccc(C2C3=C(OC(C)=O)c4ccccc4C3=Nc3c2c(=O)n(C)c(=O)n3C)cc1 (centres undefined)
  i | ? | 1e-09 | -0.1% | i
COc1ccc(C(C)NC(=O)C2C(=O)NC3(C)CC2c2ccccc2O3)cc1 (centres undefined)
  i | 9% | 1e-09 | -0.9% | i
Cc1c(C2CCN(CCc3ccccc3)CC2)noc1-c1ccc(Cl)cc1
  . | ? | . | -0.7% | .
O=C(O)c1ccc(S(=O)(=O)N(Cl)Cl)cc1
  . | 1% | . | -3.6% | .
Cc1cc(C)n(CCOc2nonc2N)n1
  i | 2% | 3e-09 | 2.2% | i
CC1(C)Cc2c(sc3nc(NCCN4CCOCC4)n4ncnc4c23)CO1
  i | 14% | 8e-09 | -1.7% | i
O=C(O)CCN1C(=O)CC2(CCCCC2)C1=O
  i | 7%[11.4 µM] | 5.7e-09 | -0.5% | i
COCc1cc(C)nc(N2CCN(c3ccccc3)CC2)c1C#N
  . | 21% | . | -0.7% | .
Cc1[nH]c(=O)[nH]c(=O)c1NC(=O)c1cccs1
  i | 1% | 1e-09 | -1.2% | i
Cc1cccc(N(CC(O)CN(C)C)S(=O)(=O)c2ccccc2)c1 (centres undefined)
  i | . | 1.9e-08 | . | i
Cc1nc(SCC(=O)c2ccccc2)c(C#N)c(-c2ccco2)c1C(=O)NCc1ccco1
  i | . | 2.3e-08 | . | i
CCOc1ccc2[nH]c(=O)c(CN(CC3CCCN3CC)C(=O)NCc3ccccc3)cc2c1 (centres undefined)
  i | 4% | 8.2e-09 | 1.0% | i
Cc1cc2n(n1)C(c1ccc3c(c1)OCO3)Nc1ccccc1-2 (centres undefined)
  i | 1% | 6e-09 | 0.2% | i
COCCNC(=O)c1ccc2c(=O)n(CCOC)c(=O)[nH]c2c1
  i | 0% | 1.5e-09 | 1.3% | i
Cn1c(=O)n(C)c2cc(S(=O)(=O)O)ccc21
  . | 2% | . | -2.3% | .
Cc1nnc(SCC(=O)Nc2nccs2)[nH]c1=O
  i | -1%[11.4 µM] | 4.4e-08 | -0.4% | i
CCc1cc2c(NCC(=O)O)ncnc2s1
  i | -3% | 2.5e-08 | 0.8% | i
COC(=O)c1cccc(S(=O)(=O)N(Cc2ccco2)Cc2cc3ccc(OC)cc3[nH]c2=O)c1
  i | 12% | 3.8e-08 | 1.9% | i
CC(=O)C1C(c2ccc(Cl)cc2)NC(=O)NC1(O)C(F)(F)F (centres undefined)
  . | 0% | . | 0.1% | .
CCCNC(=O)C1CCN(S(=O)(=O)c2ccc3nc4c(c(C(=O)O)c3c2)CCCCC4)CC1
  . | 0% | . | 0.3% | .
Cc1cc(C)cc(N(CC(=O)N2CCc3ccccc32)S(=O)(=O)c2c(C)noc2C)c1
  . | 1% | . | 2.3% | .
CCOC(=O)N1CCN(C(=O)c2ccccc2NC(=O)COc2ccccc2C)CC1
  . | 3% | . | 3.5% | .
O=C(O)CCCNc1ccc(S(=O)(=O)Nc2ccccc2C(=O)O)cc1C(=O)O
  . | -3% | . | 0.4% | .
CCOc1ccccc1C(=O)N(CN1CCCC1=O)c1ccc(C)c(Cl)c1
  i | 17% | 4.2e-08 | -1.6% | i
Cc1nn(C)c(C)c1NC(=O)CSc1nnc(C)n1-c1ccccc1
  i | . | 1e-09 | 0.6% | i
Cc1cc2cc(CCNS(C)(=O)=O)c(=O)[nH]c2cc1C
  i | -3% | 1e-09 | 0.6% | i
COc1ccccc1/C=C/CN1CC(C)OC(C)C1 (centres undefined)
  i | 0% | 1e-09 | 2.5% | i
CP(=O)(COC(=O)c1ccccc1)COC(=O)c1ccccc1
  . | ? | . | 2.7% | .
Cc1cc(N/C=C2\CCCCC2=O)no1
  i | -4% | 4.9e-08 | 1.3% | i
COc1ccc(C)cc1N(CC(=O)O)S(=O)(=O)c1ccc(C)cc1
  i | 3% | 5.2e-09 | -1.5% | i
CCSc1nc2c(c(=O)[nH]c(=O)n2C)n1C
  i | -1% | 1.5e-08 | 0.3% | i
CN(C)c1ccc(C(CC(=O)O)NC(=O)c2ccc(Cl)cc2)cc1 (centres undefined)
  i | -10% | 3e-08 | -0.5% | i
COc1ccc(-c2cc(C(F)(F)F)nc(S(C)(=O)=O)n2)cc1OC
  i | 11% | 3.5e-09 | 1.0% | i
O=C(CSc1nc(-c2ccco2)cc(C(F)(F)F)n1)N1CCSCC1
  i | -6% | 2.4e-08 | -0.7% | i
Cc1ccccc1OCc1nc2c3cnn(C)c3ncn2n1
  i | -2% | 3.5e-08 | -1.6% | i
CCOc1cccc(-c2nnc3sc(-c4cc(OC)c(OC)cc4OC)nn23)c1
  i | 11% | 1e-09 | 0.0% | i
CCCOC(=O)Nc1ccc(N2CCCCC2)cc1
  i | -1% | 1.4e-09 | 0.5% | i
Clc1cccc(N2CCN(Cc3nc(-c4ccccc4)no3)CC2)c1
  . | 25% | . | 1.3% | .
CCOC(=O)CNC(=O)CN1C(=O)CCSc2ccccc21
  . | -3% | . | -0.2% | .
OCl
  . | 7% | . | 2.4% | .
CS(=O)(=O)N(CC(=O)N1CCN(c2ccccc2)CC1)c1cc(C(F)(F)F)ccc1Cl
  . | 16%[11.4 µM] | . | 1.6% | .
O=C(CCN1C(=O)COc2ccccc21)NCCN1CCOCC1
  i | 10% | 1e-09 | -0.6% | i
CC(C)C(=O)Nc1c2c(nc3c1CCC3)CCCC2
  i | 7% | 3.7e-08 | -1.8% | i
COCCOC(=O)C1=C(C)NC(=O)NC1C1CC=CCC1 (centres undefined)
  . | -2%[11.4 µM] | . | 1.1% | .
COc1ccccc1-c1nc2s/c(=C\c3cccs3)c(=O)n2n1
  i | . | 1e-09 | 4.2% | i
CN(C)C(=O)c1ccc(-c2ccc3ncnc(NCc4cccnc4)c3c2)cc1
  i | 13% | 1.9e-09 | -0.1% | i
COc1cccc(N(CC(=O)Nc2ccccc2C)S(C)(=O)=O)c1
  i | -3% | 1.2e-08 | -1.5% | i
O=C1C=C(NC2CC2)C2(CCCCC2)O1
  . | 0% | . | 0.5% | .
CCOC(=O)N1CCN(Cc2cc(=O)oc3ccc4ccccc4c23)CC1
  i | ? | 8.1e-09 | -1.0% | i
Cc1cnc(-c2nnc(N(C)C(=O)c3ccncc3)s2)cn1
  i | -7% | 7.7e-09 | 0.1% | i
COC(=O)c1ccc(C(NC(=O)OCc2ccccc2)/C(=C/[C@@H](C)C(=O)NCc2ccc(OC)c(O)c2)c2cccnc2)cc1 (some centres undefined)
  . | 29% | . | -0.1% | .

# Other compounds follow.
# Under each structure – A488 autofl | TSHR ag | A647 fluor | AID923 | Resorufin fluor
CC(C)NC(=O)C1(O)c2ccccc2NC(=O)N1c1ccc(Cl)c(Cl)c1 (centres undefined)
  i | ? | 8.5e-09 | 0.6% | i
O=C(Nc1nonc1NC(=O)C1CCCCC1)C1CCCCC1
  i | . | 2.7e-08 | 0.1% | i
CCN1CCN(c2ccc(NC(=O)COc3ccccc3Cl)cc2)CC1
  i | -8% | 1.5e-08 | 0.6% | i
COc1ccccc1C(=O)Nc1c2c(nn1-c1cccc(C)c1C)CS(=O)(=O)C2
  i | ? | 4e-09 | -0.6% | i
CCC(=NC(CC)CO)C1=C(O)CC(C)(C)CC1=O (centres undefined)
  i | . | 1e-09 | . | i
CC(C)NS(=O)(=O)c1ccc2c(c1)oc(=O)n2C
  . | -2% | . | 2.2% | .
Cc1cnc(NC(=O)c2c(O)c3cccc4c3n(c2=O)CCC4)s1
  i | -5% | 1.7e-09 | 0.8% | i
Cn1cccc1/C=N/n1cnnc1
  i | . | 7.8e-08 | . | i
Cc1cc(C(=O)N2CCN(c3ncccn3)CC2)c(C)o1
  i | 3% | 1e-09 | 0.5% | i
Cc1ccc(NC(=O)N2CCCN(Cc3ccc(F)cc3)C2)cc1C
  i | -1% | 1e-09 | 0.2% | i
NC(=O)c1ccsc1NC(=O)COC(=O)c1ccccc1NCc1ccco1
  i | 5% | 2e-08 | -1.0% | i
CCC(C(=O)N1CC2(C)CC1CC(C)(C)C2)N1C(=O)c2ccccc2C1=O (centres undefined)
  . | ? | . | -0.1% | .
COc1cccc(Nc2ncc3nc(C)c(=O)n(C)c3n2)c1
  i | -7% | 2.5e-08 | 2.6% | i
CCn1c(SCC(=O)Nc2cccc(F)c2)nnc1-c1cc2cc(Br)ccc2o1
  i | ? | 4.8e-09 | -0.7% | i
COC(=O)c1cccc(NS(=O)(=O)c2cccs2)c1C
  i | 28% | 1e-09 | -0.7% | i
CC(C)(C)n1ncc2c(=O)n(CC(=O)N3CCN(c4ccccc4)CC3)cnc21
  i | 2% | 8.8e-09 | 0.6% | i
COc1cccc(-c2nn(-c3ccccc3)cc2C(=O)Nc2nccs2)c1
  i | -16% | 1e-09 | 0.6% | i
COC(=O)CCP(=O)(O)Cc1ccccc1CP(=O)(O)CCC(=O)OC
  i | ? | 4.1e-08 | 2.8% | i
O=C(Nc1ccc(S(=O)(=O)N2CCCC2)cc1)C1COc2ccccc2O1 (centres undefined)
  . | -5% | . | -3.7% | .
O=C(CN(C(=O)CSc1nnc(COc2ccccc2)o1)c1ccc(F)cc1)NC1CCCCC1
  i | . | 1.2e-08 | 0.9% | i
CN(C)C(=O)c1ccc(-c2nccc(NCc3ccccc3)n2)cc1
  i | 9% | 6.7e-09 | 3.1% | i
CC(=O)O[C@H]1C(=O)[C@]2(C)[C@H]([C@H](OC(=O)c3ccccc3)[C@]3(O)C[C@H](OC(=O)[C@H](O)[C@@H](NC(=O)c4ccccc4)c4ccccc4)C(C)=C1C3(C)C)[C@]1(OC(C)=O)CO[C@@H]1C[C@@H]2O
  i | . | 1e-09 | . | i
Cc1cc(C(=O)COc2ccc3ccc(=O)oc3c2)c(C)n1Cc1cccs1
  i | ? | 2.7e-08 | 8.1% | i
Cc1ccc(S(=O)(=O)NC(=O)c2cc(C)n(CCCn3ccnc3)c2C)cc1
  i | -1% | 2.8e-09 | 0.0% | i
COc1ccc(NC(=O)NCCCN2CCN(c3cc(C)ccc3C)CC2)cc1
  . | 6% | . | 0.2% | .
CN(C)c1nc(N)c(C(=O)Nc2cccnc2)nc1Cl
  . | -4% | . | 2.0% | .
CCOC(=O)Nc1ccc2c(c1)N(C(=O)CCN(C)C)c1ccccc1S2
  i | 6%[11.4 µM] | 1.2e-08 | -0.2% | i
O=C(CCN1CCN(c2ccccn2)CC1)Nc1ccc(F)cc1
  i | 1% | 2.9e-08 | 0.0% | i

# From PubChem BioAssay
